# TRPML1 agonist: qHTS for Agonists of the Human Mucolipin Transient Receptor Potential 1 (TRPML1); Mucolipin-1 (Homo sapiens), Q9GZU1; TRPML1-expressing cells, Ca2+ dye fluorescence, FDSS; host cell line not named in the record; reference of the full effect not given here; activation, % (concentration not given with the values); hit rate 0.12% among 410,000; in the data active = activation above about 50%; inconclusive = about 30% to 50%; inactive = below about 30%; also: 0% is about no effect; the text of the record puts the active cut at 80%
# Target sequence (Q9GZU1 whole entry, looked up): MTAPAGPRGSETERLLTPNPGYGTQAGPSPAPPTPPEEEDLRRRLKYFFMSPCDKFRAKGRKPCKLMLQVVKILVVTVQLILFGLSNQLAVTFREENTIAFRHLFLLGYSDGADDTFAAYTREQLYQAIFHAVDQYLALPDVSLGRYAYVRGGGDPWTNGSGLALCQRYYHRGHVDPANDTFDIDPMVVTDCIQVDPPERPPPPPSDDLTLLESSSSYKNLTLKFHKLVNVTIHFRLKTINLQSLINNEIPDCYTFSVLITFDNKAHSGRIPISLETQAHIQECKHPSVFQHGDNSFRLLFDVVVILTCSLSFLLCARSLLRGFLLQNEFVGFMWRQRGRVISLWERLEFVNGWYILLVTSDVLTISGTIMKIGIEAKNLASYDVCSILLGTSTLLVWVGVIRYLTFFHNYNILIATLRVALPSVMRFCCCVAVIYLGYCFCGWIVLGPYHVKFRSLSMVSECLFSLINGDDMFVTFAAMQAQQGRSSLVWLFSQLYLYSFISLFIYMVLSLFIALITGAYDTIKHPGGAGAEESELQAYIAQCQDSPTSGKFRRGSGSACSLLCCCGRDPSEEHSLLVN
#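 TRPML1-DL cells, Tet-induced overnight (~16 h, 37 degrees C), loaded 45-90 min at room temperature with Ca8 no-wash calcium dye plus quencher. FDSS fluorescence: 10 s baseline, compound pin-transfer, 110 s agonist read, then EC80 54-4 (4uM final) and 110 s antagonist read.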
# TRPV1 potentiator: HTS Assay for Compounds that Act as Potentiators of the Vanilloid Receptor 1; Transient receptor potential cation channel subfamily V member 1 (Homo sapiens), Q8NER1; TRPV1-expressing cells, Fluo-8 calcium influx, capsaicin EC20 potentiation; host cell line not named in the record; control for the full effect not named in the record; potentiation, % at 8.33 µM; hit rate 0.02% among 320,000; AID 540277, 2011; active means potentiation above 80%; inconclusive means 30% to 80%; inactive means below 30%; also: 0% is about no effect
#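 Fluo-8 calcium influx in TRPV1-expressing cells, kinetic read (ex 480/em 520 nm). Compound added and read 3 min for agonist activity, followed by capsaicin at EC20 final and 2 min further read for enhancement.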
# Menin-MLL FL inh: qHTS Assay for Inhibitors Targeting the Menin-MLL Interaction in MLL Related Leukemias: Competition With Fluorescein Labeled MLL-derived Peptide; FP activity change, % at 61.4 µM; 290,000 tested, under 10 active; Fluorescence polarization, fluorescein-MLL peptide displacement from menin; inconclusive = falling polarisation curve, or a change in total fluorescence; inactive = total fluorescence flat and polarisation flat or rising; no compound was filed as active; the % refers to the polarisation; negative = inhibition;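 also: % of control where 0% means no effect; inhibitors lower the polarisation; unlabelled MLL peptide was the positive control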
# TRPML1 blocker: qHTS for Inhibitors of the Human Mucolipin Transient Receptor Potential 1 (TRPML1); TRPML1-inducible cells, Ca2+ dye fluorescence, FDSS; hits give low values; inhibition of EC80 agonist-evoked calcium signal; activity change, negative = inhibition, % (no concentration beside the values); hit rate 0.02% among 390,000; in the data active means activity change below about -50%; inconclusive means about -30% to -50%; inactive means above about -30%;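 also: stimulus is agonist 54-4 at its EC80 concentration; % is scaled to controls: 0 for no effect and ±100 for the full control effect; compound concentration not given in the record; the text of the record puts the active cut at -80%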
#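 Calcium fluorescence in TRPML1-DL cells induced overnight with Tet: a 110 s read after compound pin addition, then a 110 s antagonist read after challenge with 54-4 at 4 uM final (EC80).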
# Sfp PPTase inh: qHTS Assay for Inhibitors of Bacillus subtilis Sfp phosphopantetheinyl transferase (PPTase); Biochemical Sfp PPTase activity, qHTS; hit rate 3.5% among 310,000; Potency, µM, inactives show max response, negative = inhibition, hits mostly inhibitors; 4'-phosphopantetheinyl transferase ffp (Bacillus subtilis), Q9F4F7; active = well fitted inhibition curve with a large enough effect; inconclusive = small, poorly fitted or top-dose-only effect, or another doubt; inactive = no such curve, though single readings can be large or run the other way;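 also: the enzyme is Sfp with the accession as filed and its product quenches rhodamine fluorescence; potency is read from the fitted curve at half-maximal effect; 0% = enzyme reaction without inhibitor and -100% = no enzyme wells; top concentration of the series not given in the record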
#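 Reaction rates are the 30-min fluorescence difference (ex 525, em 598 nm) in wells containing 15 nM Sfp, 5 uM rhodamine-CoA and 12.5 uM BHQ-2-YbbR at pH 7.6 with 10 mM MgCl2.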
# ClpP mod: qHTS Assay for Activators of ClpP; Potency, µM (top dose mostly 57.5 µM), inactives show at the highest dose activity change, negative = active; ATP-dependent Clp protease proteolytic subunit (Bacillus subtilis (strain 168)), P80244; hit rate 1.9% among 340,000; AID 651965, 2013; purified B. subtilis ClpP, FRET peptide cleavage, 20 min; active = well fitted falling curve with a large enough effect; inconclusive = small, poorly fitted or top-dose-only effect; inactive = no such curve, though single readings can be large or run the other way; also: potency is read from the fitted curve at half-maximal effect; the source files actives as falling curves though it sought activators and does not explain the sign; nearly all actives have a fitted effect of over 65% in size; many hits overshoot -100%
# Target sequence (P80244 whole entry, looked up): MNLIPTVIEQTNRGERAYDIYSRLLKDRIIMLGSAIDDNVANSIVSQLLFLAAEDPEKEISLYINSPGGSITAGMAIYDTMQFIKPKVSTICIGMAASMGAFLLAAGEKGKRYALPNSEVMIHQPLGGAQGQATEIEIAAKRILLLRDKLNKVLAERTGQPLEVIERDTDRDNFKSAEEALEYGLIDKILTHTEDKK
#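 Buffer: 100 mM Tris/HCl pH8, 100 mM KCl, 0.05% low protease BSA, 2.5% glycerol, 0.01% Tween-20. ClpP 10 microg/mL final; 20 min RT; delta FRET normalized to ADEP and DMSO controls.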
# PINK1 modulator: A Quantitative High throughput Screen to Identify Chemical Modulators of PINK1 Expression; PINK1 immunofluorescence, high-content cytometry, 24 h; Potency, µM (top dose mostly 76.6 µM), inactives show at the highest dose activation (PINK1 increase), actives largely listed as activators; hit rate 0.2% among 410,000; active = well fitted activation curve with a large enough effect; inconclusive = small, poorly fitted or top-dose-only effect; inactive = flat fitted curve, though single readings scatter; cell line not stated here;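 also: potency is read from the fitted curve at half-maximal effect; % of control where 0% means no effect; nearly all actives have a fitted effect of over 65% in size; a mitochondrial uncoupler was the plate control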
#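 A stable cell line was treated with compounds at 5 concentrations for 24 hours, with CCCP as control. PINK1 levels and mitochondrial localization were measured by immunofluorescence with mitochondrial, cell and nuclear markers after fixation, read by laser-scanning cytometry.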
# The depositor's hits bear a star; u = inconclusive; x = not tested or not shown; [ ] = dose if it differs, or a comment.
SMILES,TRPML1 agonist,TRPV1 potentiator,Menin-MLL FL inh,TRPML1 blocker,Sfp PPTase inh,ClpP mod,PINK1 modulator
CC(C)(C)NC(=O)C(c1ccco1)N(Cc1ccc2c(c1)OCO2)C(=O)c1snc(C(N)=O)c1N (configuration not stated),1.4,25.2,5.3,-2.4,8.0%,x,2.0%
OC(c1ccc(Cl)cc1)c1ncc(-c2ccc(Cl)cc2)[nH]1 (configuration not stated),-1.1,x,x,x,x,-1.0%,u
COc1ccc(N(C(=O)c2ccc(Br)o2)C2C=CS(=O)(=O)C2)c(OC)c1 (configuration not stated),-0.3,-2.6,0.7,5.7,-1.7%,-0.1%,-0.3%
COc1cccc(C(=O)OCC(=O)Nc2nnc(-c3ccccc3)o2)c1,0.2,-7.8,x,12.8,x,-5.5%,-0.9%
COc1ccc(NC(=O)c2cc([N+](=O)[O-])nn2Cc2ccccc2)c(C)c1,-0.7,-9.2,3.3,1.9,6.8%,0.3%,0.8%
CC(=O)c1ccc(C(=O)N(Cc2cccnc2)c2nc3c(Cl)cccc3s2)cc1,-0.1,x,x,-13.9,x,-10.7%,5.3%
O=C1NC(=Nc2ccccc2)S/C1=C\c1cccnc1,0.0,-4.0,1.7,31.0,5.2%,0.4%,0.0%
CCCCc1ccc(NC(=O)CSc2nc(=O)n3cc(C)ccc3n2)cc1,1.2,27.1,x,8.8,x,x,u
CC1C(=O)N(Cc2cn(Cc3ccco3)nn2)CCS(=O)(=O)N1Cc1ccc(-c2cccnc2)cc1 (configuration not stated),-0.2,x,x,21.2,x,-2.2%,3.7%
CCc1nc2c(OCCOc3ccc(F)cc3)cccn2c1N(C)C(=O)C(C)C,1.1,x,x,9.9,x,-1.0%,0.6%
C[C@@H]1CN([C@@H](C)CO)C(=O)c2cccc(NC(=O)Nc3ccc4c(c3)OCO4)c2O[C@H]1CN(C)S(=O)(=O)c1cn(C)cn1,-0.3,x,x,19.4,x,-6.7%,1.1%
COc1ccc(-n2c(O)c(/C=N/n3cnnc3)c3ccccc3c2=O)cc1,-0.7,-1.3,u,-2.9,4.6%,u,0.8%
Cc1ccc(S(=O)(=O)NC(=O)NCc2ccccc2)cc1,-0.2,1.5,-0.2,3.9,16.8%,-0.9%,2.1%[38.3 µM]
CC(=O)Nc1ccc(SC[C@H](c2ccccc2)N2CCN(CCc3ccccc3)CCC2=O)cc1,x,23.6,0.5,x,5.1%,x,x
O=C(Nc1ccccc1O)c1cc(S(=O)(=O)N2CCOCC2)ccc1Cl,-0.3,3.9,-2.1,5.1,13.3%,-1.1%,-2.0%
O=C(NCN1CCN(c2ccccc2F)CC1)c1cccnc1,0.3,0.2,-1.7,13.5,11.5%,0.8%,u
CN(C(=O)c1ccc2ccccc2c1)c1ccccn1,0.3,-8.2,-0.3,1.8,8.1%,x,0.4%
CCN1CCN(Cc2ccc(NC(=O)c3ccc(C)c(NC(=O)c4nccn4C)c3)cc2C(F)(F)F)CC1,0.1,-10.9,0.8,5.8,5.8%,0.7%,-1.1%
CCN(CC)CC(=O)Nc1sc2c(c1C(=O)c1ccccc1C)CCC2,-0.9,-1.3,6.2,6.3,-12.1%,x,3.7%
O=C(NC1=NCCS1)c1cc(-c2ccccc2)nn1-c1ccccc1,-1.0,-8.5,2.9,9.8,-0.5%,1.5%,3.7%
Cc1ccc(CN2C(=O)CCC2C(=O)NC2CC2)cc1 (configuration not stated),-0.7,22.0,0.4,-3.5,2.0%,4.7%,0.9%
Cc1cccc(CN2CCN(Cc3ccco3)CC2)c1,0.0,4.3,5.3,-18.5,u,0.3%,0.5%
CC1CCN(C(=O)COC(=O)CSc2ccc(C(N)=O)cc2[N+](=O)[O-])CC1,-0.8,-6.2,x,-5.0,x,1.9%,7.5%
C#Cc1ccc(NC(=O)C2(C)CCN2C(=O)C2(c3ccccc3)CC2)cc1 (configuration not stated),-0.2,x,x,-1.4,x,-1.0%,2.5%
CCN(C(=O)c1ccccc1Cl)c1ccccc1,0.2,4.9,-3.9,19.6,u,-1.8%,4.0%[38.3 µM]
O=C(NC1CCN(C(=S)NCc2ccco2)CC1)C1CCCCC1,0.6,2.7,1.6,-4.7,-0.1%,0.0%,x
CC1(C)CC(=O)C2=C(C1)Nc1cc3c(cc1C2c1ccc(F)cc1)OCO3 (configuration not stated),4.5,-20.3,-0.6,8.8,-21.0%,31.6µM*,-0.6%
Cc1ccc2c(C)c(C(=O)NCCc3ccco3)oc2c1C,3.6,-0.4,x,1.7,-6.3%,-3.8%,0.1%
NS(=O)(=O)c1ccc(NC(=S)N2CCCC2)cc1,0.7,27.3,x,-3.5,13.2%,-0.4%,-0.8%
CN(C)C1=NCCN1CCc1cccc(F)c1,0.1,2.6,0.2,-8.0,16.4%,0.3%,0.3%
O=C(COC(=O)/C=C/c1ccco1)NCc1ccccc1,-0.8,4.2,0.6,0.5,6.2%,-15.2%,2.5%
O=C(CCn1cccn1)NCc1ccc(Cl)cc1,1.6,x,x,18.0,x,0.1%,-0.9%
Cc1ccc(CNC(=O)CCC2CCCN(C(=O)CCC(F)(F)F)C2)o1 (configuration not stated),-0.5,-3.4,-3.0,19.5,u,x,0.3%
CCCCCC(=O)OCc1ccc(C2=CC(=O)CC(C)(C)C2=O)cc1,-0.6,x,x,33.4,x,0.7%,2.0%
Cc1ccc(C)c(S(=O)(=O)N2CCCOC2CNC(=O)C(=O)NCc2cccnc2)c1 (configuration not stated),0.3,-3.8,0.8,0.6,20.3%,0.8%,1.6%
O=C(CN(C(=O)Cn1nnc(-c2ccc(F)cc2)n1)c1ccc(F)cc1)NC1CCCC1,0.0,7.0,u,-3.8,10.0%,x,1.2%
CCC1(CC)NC(=O)N(CC(=O)Nc2ccc(S(=O)(=O)N3CCOCC3)cc2)C1=O,2.8,-3.4,13.7,10.0,18.6%,-1.6%,0.2%
CCC(OC(=O)c1ccco1)C(=O)NC1CCCC1 (configuration not stated),0.3,3.9,2.7,-12.5,14.3%,x,0.7%
CCN1CCN(c2nc(S(=O)(=O)c3ccc(C)cc3)c(Cl)s2)CC1,-0.4,-14.6,-0.7,54.6,1.6%,-1.8%,0.6%
CCOc1ncccc1C(=O)OCc1ccc(C(=O)OC)o1,0.1,22.2,5.6,-3.7,10.9%,-11.1%,-1.3%
COCC(C)NC(=O)c1cc2c(=O)n3cccc(C)c3nc2s1 (configuration not stated),0.8,x,x,16.7,x,4.8%,1.2%
CC(C)CN(C(=O)c1ccc(C(F)(F)F)cc1)c1c(N)n(CC(C)C)c(=O)[nH]c1=O,-0.4,-2.5,1.3,-0.1,3.9%,2.9%,6.3%
CCCCn1c(-c2cccc3ccccc23)nc2cc3[nH]c(=O)c(C(C)C)nc3cc21,1.2,8.3,7.4,8.9,-12.8%,4.6%,3.5%
CC(C)NC(=O)CC1C(=O)NCCN1CC(c1ccccc1)c1ccccc1 (configuration not stated),1.1,1.8,-0.4,5.4,11.0%,x,-1.1%
CC(C)C(C)NC(=O)CN1C(=O)NC2(CCCc3ccccc32)C1=O (configuration not stated),0.3,4.7,-3.0,-7.6,15.1%,x,4.7%
CC1(C)CC(N2CCCC2)=CC(=[N+]2CCCC2)C1,6.2,-3.4,2.7,-0.2,u,-2.8%,-0.7%
O=C(CCCN1C(=O)NC2(CCCC2)C1=O)Nc1cccc(S(=O)(=O)N2CCOCC2)c1,0.1,-1.8,x,-12.8,x,-4.4%,-0.7%
CC(NCCCOc1cccc2ccccc12)c1ccccc1 (configuration not stated),-0.6,0.4,0.6,-9.3,-22.0%,-6.7%,-1.9%
Cc1ccc(-c2cc(-c3ccccc3)nc(N)c2C#N)o1,x,-1.7,u,x,0.1%,3.7%,u
CC(C)(C)C1CCc2c(sc(NC(=O)C3CC=CCC3C(=O)O)c2C#N)C1 (configuration not stated),0.5,-2.2,6.3,-7.2,9.6%,0.1%,0.5%

# The listing continues:
SMILES,TRPML1 agonist,TRPV1 potentiator,Menin-MLL FL inh,TRPML1 blocker,Sfp PPTase inh,ClpP mod,PINK1 modulator
CCOC(=O)c1ccc(N/N=C/c2cc(Br)cc([N+](=O)[O-])c2O)cc1,-0.6,13.1,-3.9,2.5,17.9%,x,4.9%
Cc1cc2oc(=O)cc(CN(C)Cc3cccc(F)c3)c2cc1Cl,-0.1,-20.3,7.2,-14.3,-11.3%,0.0%,1.8%
CCC(C)N(C(=O)Cn1c(=O)cnc2ccccc21)C1CCS(=O)(=O)C1 (configuration not stated),-0.3,-7.6,x,-3.8,x,u,-0.5%
O=C(OCc1ccccc1)/C(=C/c1cccc([N+](=O)[O-])c1)NC(=O)c1ccco1,3.6,-6.3,-2.1,-14.6,1.3%,-0.7%,0.2%
Cc1ccc(-c2nnn(CCC(=O)NC(C)(C)C)n2)cc1,0.3,-2.9,0.2,-4.2,15.7%,-0.6%,-1.3%
Nn1c(SCC(=O)Nc2ccc(Oc3ccccc3)cc2)nnc1C1CC1,0.0,-4.3,3.0,9.9,-4.1%,-1.2%,4.1%
N#CCn1c2ccccc2c2nc3ccccc3nc21,-0.1,-19.5,-0.3,12.8,7.3%,x,1.1%
CC1CC(C)CN(c2oc(-c3ccc(OCc4ccccc4Cl)cc3)nc2C#N)C1 (configuration not stated),-0.1,x,x,x,x,4.2%,0.1%
NC(=O)c1cccc2c(=O)oc3ccccc3c12,1.4,-18.7,0.7,-18.3,10.3%,-8.8%,-2.1%

# Compounds above that have bromine (two):
SMILES,TRPML1 agonist,TRPV1 potentiator,Menin-MLL FL inh,TRPML1 blocker,Sfp PPTase inh,ClpP mod,PINK1 modulator
COc1ccc(N(C(=O)c2ccc(Br)o2)C2C=CS(=O)(=O)C2)c(OC)c1 (configuration not stated),-0.3,-2.6,0.7,5.7,-1.7%,-0.1%,-0.3%
CCOC(=O)c1ccc(N/N=C/c2cc(Br)cc([N+](=O)[O-])c2O)cc1,-0.6,13.1,-3.9,2.5,17.9%,x,4.9%

# Screening data (PubChem)
